Compound activity as filed in PubChem BioAssay.
BJeLR viability: BJeLR cell viability loss; BJeLR (HRASV12) viability, CellTiter-Glo ATP luminescence, 48 h; reference of the scale not given here; inhibition, % (test concentration not listed); 300,000 compounds, 0.17% hits;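 active = replicate mean above 50%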;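 also: 50 nL library stock added to about 25 µL; numbers are from one replicate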
RN4220 kill: S. aureus RN4220 growth inhibition; OD600, 16 h; inhibition, % (no concentration beside the values); 330,000 compounds, 0.33% hits;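 active = z-score of -3 or lower and OD600 up to 0.18 on both plates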;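 also: plate controls were untreated cells for no effect and reference antibiotic for full effect; stock transfer was 100 nL into about 80 µL; one replicate is shown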
Mtb hypoxia inh: reduces hypoxia-regulated biosensor signal in M. tuberculosis; 300,000 compounds, 0.1% hits; AID 1159583; fluorescence inhibition, % (test concentration not listed); M. tuberculosis hypoxia-regulated fluorescent reporter, fluorescence;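 active = 35 to 45% if threefold the growth effect, above 45% if 1.5-fold the growth effect; inactive = the rest, general growth blockers included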;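 also: wells of about 50 µL received 100 nL stock; 0% = vehicle wells and 100% = reference inhibitor wells; whole bacteria with a GFP reporter of the hypoxia response; strong numbers were not always called active; many hits fall short of the cut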
PrP 5UTR inh: suppresses PrP 5' UTR mRNA reporter expression; inhibition, % (no concentration beside the values); 340,000 compounds, 0.35% hits; cell-based PrP 5' UTR mRNA reporter, plate reader;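 active = every replicate at 50% or more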;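 also: 0 = median of the neutral control wells; tested in H4 reporter cells; numbers are from one replicate; inactives centre near -14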
Bead autofluor: compound fluorescence in toxin protease inhibitor counterscreen; compound autofluorescence counterscreen, microsphere flow cytometry; active compounds read high; fluorescence intensity (concentration not given with the values); 360,000 compounds, 3.1% hits; AID 624483;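 active = at least 3 SD above the mean of all compounds, about 16000 in these data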;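 also: 100 nL of 1 mM stock went into each well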
ugtP null kill: compounds lethal to S. aureus RN4220 ugtP deletion mutant; growth inhibition, % (no concentration beside the values); OD600 growth, 16 h; some inactives read as strong as hits; 330,000 compounds, 0.54% hits;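 active = z-score under -3 and OD600 up to 0.15 on both plates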;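 also: plate controls were untreated wells for no effect and antibiotic for full effect; wells of about 80 µL received 100 nL stock; the first replicate is given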
Mtb hypoxia inh growth: recorded beside Mtb hypoxia inh, whose call it bears; growth inhibition, %; measured here: M. tuberculosis growth (absorbance);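 0% = vehicle and 100% = reference antibiotic; read after six days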
* hit, by the source's call; . = not tested or not shown; & = joins results of further samples. This is a random part of the collection. Share with any hit: about 4%.

molecule,BJeLR viability,RN4220 kill,Mtb hypoxia inh,Mtb hypoxia inh growth,PrP 5UTR inh,Bead autofluor,ugtP null kill
COc1ccc(C2CC(c3cccs3)=NN2c2ccccc2)cc1 (centres undefined),-6,49,-6,9,-13,4471,-11
COc1cc(/C=N/NC(=S)Nc2cccc(S(=O)(=O)N(C)C)c2)cc(OC)c1O,-10,.,.,.,7,8938,.
CN1CCc2c(sc(NC(=O)CS(=O)(=O)c3ccc(F)cc3)c2C(N)=O)C1,-2,1.7,2,6,3,5875,5
COc1ccc(C(=O)Nc2cc3c4c(c2)C(C)C(=O)N4CCC3)cc1 (centres undefined),-6,-0.4,-12,-1,-12,.,-2
O=[N+]([O-])c1cccc(NN=Cc2cccc3ccccc23)c1,.,-3.9,11,-3,.,.,-5
O=C(O)c1nn(-c2cccc(Cl)c2)c(=O)cc1O,-5,4.2,-9,11,-25,2585,1
O=C(NCCc1nnc2ccc(NCc3ccc(F)cc3)nn12)c1ccccc1,4,2.6,2,6,0,4091,10
Cn1cc(CC(=O)NC2CCCCC2)c2ccccc21,-5,2.8,19,11,-18,2161,12
CC(NC(=O)COC(=O)c1ccc2ccccc2n1)C1CC2CCC1C2 (centres undefined),3,9.2,19,1,-13,11107,5
O=C(Oc1cccc(-c2cnc3ccccc3n2)c1)c1ccco1,-6,7.4,.,.,-48,2456,-2
O=S(=O)(c1cccc(C(F)(F)F)c1)N(CCCN1CCOCC1)Cc1cccs1,15&-7,7.3&4.0,6,16,-30&-16,4768&4151,1&-1
CCOC(=O)c1c(-c2cccc([N+](=O)[O-])c2)csc1NC(=O)C1CCCCC1,6,-4.2,-7,8,7,3394,-25
COc1ccc(C(=O)NC(C(=O)N2CCN(c3ccccc3O)CC2)C(C)C)cc1 (centres undefined),-2,3.1,-16,-8,-8,3724,-2
COc1ccccc1-c1nc2ccccc2nc1-c1ccccc1,-5,0.7,5,3,1,2612,63
CCOC(=O)C1=CN(CC)S(=O)(=O)NC1c1ccc(F)c(Cl)c1 (centres undefined),.,6.1,6,4,-6,2973,6
CC(C)N1CCC(N2CCN(Cc3cc4c(cc3Cl)OCO4)CC2CCO)CC1 (centres undefined),5,5.2,8,3,-26,4766,-3
O=C(COc1ccc(Cl)cc1Cl)Nc1ccccc1NS(=O)(=O)c1cccs1,-3,4.6,-7,-11,-18,2016,-14
CC(=O)N1CCN(c2ccc(NC(=O)c3ccc([N+](=O)[O-])o3)cc2Cl)CC1,-4,99*,.,.,-25,3759,100*
Cn1c(=O)c2c(nc(N3CCN(c4ccccc4)CC3)n2CCCc2ccccc2)n(C)c1=O,14,-14,-1,8,-19,3323,0
COc1ccc(NC(=O)C2CCCN(c3cnccn3)C2)cc1 (centres undefined),2,3.1,1,5,5,5767,-3

Full records from above.
O=S(=O)(c1cccc(C(F)(F)F)c1)N(CCCN1CCOCC1)Cc1cccs1 in the list: BJeLR viability = 15&-7; RN4220 kill = 7.3&4.0; Mtb hypoxia inh = 6; Mtb hypoxia inh growth = 16; PrP 5UTR inh = -30&-16; Bead autofluor = 4768&4151; ugtP null kill = 1&-1
CCOC(=O)C1=CN(CC)S(=O)(=O)NC1c1ccc(F)c(Cl)c1 (centres undefined) in the list: BJeLR viability = .; RN4220 kill = 6.1; Mtb hypoxia inh = 6; Mtb hypoxia inh growth = 4; PrP 5UTR inh = -6; Bead autofluor = 2973; ugtP null kill = 6

(list continues)
molecule,BJeLR viability,RN4220 kill,Mtb hypoxia inh,Mtb hypoxia inh growth,PrP 5UTR inh,Bead autofluor,ugtP null kill
OC(Cc1ccncc1)(c1ccccc1)c1ccccc1,4,3.0,2,-2,-28,3910,6
Cc1nc2ccccc2n1CC(=O)N/N=C/c1cccnc1,-8,.,.,.,-12,2524,.
C=C(C)Cn1c(C)cc(C)c(S(=O)(=O)c2ccc(C)cc2)c1=O,-12,6.1,1,3,-13,2480,12
CCC(CC)NC(=O)c1cccc(NC(=O)C(C)C)c1,9,1.2,0,-10,-5,2620,10
C[C@H](CO)N1C[C@H](C)[C@@H](CN(C)C(=O)NC2CCCCC2)Oc2c(NC(=O)CCC(F)(F)F)cccc2C1=O,.,0.7,5,4,-15,3832,10
COc1cc(CNC(C)C)c(Br)cc1OC1CCCC1,1,5.0,5,7,-13,2303,-2
Cc1ccc(NC(=O)/C=C/c2ccc([N+](=O)[O-])s2)c(C)c1,15,26,13,25,-47,2518,4
O=C(Cn1c(=O)oc2cc(S(=O)(=O)N3CCCC3)ccc21)Nc1cccc(C(F)(F)F)c1,3,-7.3,11,7,-7,3799,-2
Cc1ccc(S(=O)(=O)NC(=O)COc2ccccc2)cc1,.,-2.5,-4,6,-1,3100,-11
S=C(Nc1cccc(Cl)c1Cl)Nn1cnnc1,22,3.0,9,-4,-9,2080,-5
CC(C)(C)N1C(CC(=O)O)c2cc(C(F)(F)F)ccc2S1(=O)=O (centres undefined),.,4.2,-7,-2,.,.,-6
CCN(CC)CCNC(=O)c1cc(-c2cccnc2)nc2ccc(S(=O)(=O)N3CCC(C)CC3)cc12,7,2.4,4,4,-8,6558,3
O=C1OC(Cc2ccccn2)C(O)=C1C1=NCCCCN1 (centres undefined),8,4.9,6,-1,-92,1923,5
Cc1ccc(Cn2nnc3c(=O)n(CC(=O)NCc4ccc5c(c4)OCO5)cnc32)cc1,-8,2.0,-1,-10,-17,7921,10
COc1ccc(S(=O)(=O)N2CCc3ccccc32)cc1C(=O)Nc1cc(S(C)(=O)=O)ccc1Cl,.,6.0,-5,8,16,3812,-4
CC1CCN(C(=O)c2ccc(S(=O)(=O)N(C)C)cc2)C(C)C1 (centres undefined),2,0.7,3,5,-18,11275,5
CS(=O)(=O)N(CC(=O)NC1CCCCC1)Cc1ccc(F)cc1,-12,1.8,-8,-4,3,4763,3
Cc1cc(C)n(CC(=O)N/N=C/c2cccc([N+](=O)[O-])c2)n1,4,.,.,.,-14,2459,.
Cc1cc(C(=O)NC2CC(C)(C)Cc3c2cnn3-c2ccccc2)n(C)n1 (centres undefined),-2,4.3,2,0,-27,5537,0
O=C(Nc1ccc(F)cc1)c1ccc(-n2ccnc2)nc1,9,-0.6,-3,-4,-5,22409*,-4
O=C(CNC(=O)c1ccc(Br)cc1)N=Nc1c(O)[nH]c2ccc([N+](=O)[O-])cc12,2,12,-5,0,-11,4460,-4
O=C(CC1NCCNC1=O)Nc1ccc2c(c1)OCO2 (centres undefined),-3,.,.,.,-10,22917*,.
COc1cc(C(=O)Nc2scc(-c3ccc(Br)cc3)c2C(=O)O)cc(OC)c1OC,0,36,-7,12,-19,3898,6
CCN(C[C@H]1N[C@@](C)(C(=O)OC)[C@H]2C(=O)N(C)C(=O)[C@@H]12)C(=O)c1ccc(F)cc1,.,1.3,2,7,3,3748,5
FC(F)(F)c1ccccc1NC(=S)N1CCN(Cc2ccc3c(c2)OCO3)CC1,-10,-0.9,7,-16,-8,4117,5
Cc1ccc(S(=O)(=O)NC2CCCCC2)c2nsnc12,0,-3.1,1,3,-5,2728,5
CCOc1ccc(C(=O)N/N=C/c2cccc3cccnc23)cc1,7,.,.,.,4,2708,.
CC1CCN(S(=O)C23CC4CC(CC(C4)C2)C3)CC1 (centres undefined),-9,14,25,16,-3,3784,0
CCOc1ccccc1NC(=O)c1cc(=O)c2ccccc2o1,14,1.7,3,3,-11,5276,2
CC1CCC(C(C)C)C(OC(=O)CSc2nccc(=O)[nH]2)C1 (centres undefined),-1,12,3,9,-19,10754,-13
CCN1C(=O)[C@@H]2[C@H](C1=O)[C@@H]1C(=O)Nc3ccccc3C(=O)N1[C@@H]2c1cccc(Cl)c1,3,.,.,.,-2,4120,.
CCCCNc1ncnc2[nH]ncc12,.,3.3,2,0,14,2869,3
Cc1[nH]c(=O)[nH]c(=O)c1S(=O)(=O)N1CCCc2ccccc21,-9,5.3,4,-10,-18,5732,12
Cc1sc2nc(C(C)C)nc(SCC(=O)N3CCN(C(=O)c4ccco4)CC3)c2c1C,-14,7.9,13,9,-23,6876,10
O=C(COc1ccccc1Br)N1CCN(c2ccccc2)CC1,5,0.2,8,3,-12,14916,7
N#C/C(=C(/O)CN1CCN(c2ccccc2F)CC1)c1nc(-c2ccc(Cl)cc2)cs1,13,3.7,7,-7,-14,5481,8
COc1ccccc1Nc1nc2ccccc2n2cnnc12,2,-4.0,3,4,-12,4992,10
Cc1ccc(-n2c(=O)[nH]c3c(C(N)=O)nc(C(C)C)nc32)cc1,-8,1.4,-8,15,-10,3901,2
O=C(OCC(O)COc1ccccc1)c1ccc([N+](=O)[O-])cc1 (centres undefined),-3,3.0,-2,2,7,4059,-5
CCOC(=O)c1ccc(N2Cc3ccccc3C2=NC(=O)c2ccncc2)cc1,.,1.6,-2,2,-66,4265,-12
Cc1c(NS(=O)(=O)c2ccc(NCC3CCCO3)c([N+](=O)[O-])c2)c(=O)n(-c2ccccc2)n1C (centres undefined),12,5.8,13,1,-14,4506,11
O=C(c1ccc(F)cc1)c1ccc(-c2ccc(F)cc2)nc1,-5,5.2,6,-3,-38,4017,-4
Cc1cc(C[n+]2ccccc2)c2nsnc2c1,9,1.8,2,11,-33,8008,8
Cc1ccc(-c2nc(CN3CCCCC3c3cccc(F)c3)c(C)o2)o1 (centres undefined),-1,5.0,5,3,-10,7176,2
CCOCCOC(=O)COC(=O)c1ccccc1NC(=O)c1ccccc1,0,7.0,4,8,-25,2546,12
CC(C)N1CC(O)=C(c2nc3ccccc3[nH]2)C1=N,-6,2.9,8,19,-23,12380,0

Structural class, the compounds so far containing a nitro group on carbon.
molecule,BJeLR viability,RN4220 kill,Mtb hypoxia inh,Mtb hypoxia inh growth,PrP 5UTR inh,Bead autofluor,ugtP null kill
O=[N+]([O-])c1cccc(NN=Cc2cccc3ccccc23)c1,.,-3.9,11,-3,.,.,-5
CCOC(=O)c1c(-c2cccc([N+](=O)[O-])c2)csc1NC(=O)C1CCCCC1,6,-4.2,-7,8,7,3394,-25
CC(=O)N1CCN(c2ccc(NC(=O)c3ccc([N+](=O)[O-])o3)cc2Cl)CC1,-4,99*,.,.,-25,3759,100*
Cc1ccc(NC(=O)/C=C/c2ccc([N+](=O)[O-])s2)c(C)c1,15,26,13,25,-47,2518,4
Cc1cc(C)n(CC(=O)N/N=C/c2cccc([N+](=O)[O-])c2)n1,4,.,.,.,-14,2459,.
O=C(CNC(=O)c1ccc(Br)cc1)N=Nc1c(O)[nH]c2ccc([N+](=O)[O-])cc12,2,12,-5,0,-11,4460,-4
O=C(OCC(O)COc1ccccc1)c1ccc([N+](=O)[O-])cc1 (centres undefined),-3,3.0,-2,2,7,4059,-5
Cc1c(NS(=O)(=O)c2ccc(NCC3CCCO3)c([N+](=O)[O-])c2)c(=O)n(-c2ccccc2)n1C (centres undefined),12,5.8,13,1,-14,4506,11
